ClpP mod – qHTS Assay for Activators of ClpP. Potency, µM (highest dose often 57.5 µM), for inactives: top-dose activity change, negative = active. ATP-dependent Clp protease proteolytic subunit (Bacillus subtilis (strain 168)), P80244. 1.9% of 340,000 active. purified B. subtilis ClpP, FRET peptide cleavage, 20 min; active = well fitted falling curve with a large enough effect; inconclusive = small, poorly fitted or top-dose-only effect; inactive = no such curve, though single readings can be large or run the other way; note: the source files actives as falling curves though it sought activators and does not explain the sign; nearly all actives have a fitted effect of over 65% in size; many hits overshoot -100%
Target sequence (P80244 whole entry, looked up): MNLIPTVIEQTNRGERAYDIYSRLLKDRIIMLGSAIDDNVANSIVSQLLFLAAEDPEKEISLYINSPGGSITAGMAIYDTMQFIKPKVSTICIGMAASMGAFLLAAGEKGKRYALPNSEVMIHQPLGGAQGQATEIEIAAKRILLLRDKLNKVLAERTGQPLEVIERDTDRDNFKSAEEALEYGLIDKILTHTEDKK
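FRET quenching reversal measured ClpP activation: 10 microg/mL B. subtilis ClpP at pH 8 with the FRET-FV decapeptide, read at 430 nm after 320 nm excitation. The 20-min minus 0-min signal was scaled between DMSO/no-enzyme wells and ADEP (5.8 microM final).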
PINK1 expr mod – modulators of PINK1 expression; 0.2% of 410,000 active; AID 624263; Potency, µM (titrated, usually from 76.6 µM), without a hit: at the highest dose activation (PINK1 increase), usual class: activators; PINK1 immunofluorescence, high-content cytometry, 24 h; active = well fitted activation curve with a large enough effect; inconclusive = small, poorly fitted or top-dose-only effect; inactive = flat fitted curve, though single readings scatter; cell line not stated here;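 note: % of control where 0% means no effect; nearly all actives have a fitted effect of over 65% in size; a mitochondrial uncoupler was the plate control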
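Measures PINK1 amount and localization on or inside mitochondria by immunofluorescence. Stable cells get compounds at 5 concentrations for 24 hours before fixation and staining; CCCP controls included.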
An asterisk follows results filed as active; ? = inconclusive. Potency is the fitted concentration of half-maximal effect. The list is partial, so the mix of outcomes need not match the whole.

Order of results: ClpP mod | PINK1 expr mod
> COc1ccc(CCC(=O)NCCc2csc(-c3cccc(F)c3)n2)cc1
  -4.6% | -0.5%
> Oc1cccc(Nc2cc(-c3ccccc3)ncn2)c1
  -5.0% | -0.1%
> Cn1c(=O)oc2cc(S(=O)(=O)N3CCCC(C(=O)Nc4ccc(Br)cc4F)C3)ccc21 (stereo not given)
  -1.4% | 1.1%
> CCCSCCCNC(=O)c1ccc2c(c1)sc1nc(-c3ccc(OCC)cc3)cn12
  ? | 0.2%
> CCOC(=O)c1ccccc1NC(=O)c1cn(CC(C)C)c(=O)c2cc(OC)c(OC)cc12
  -3.6% | 1.2%
> CCN(c1cc(C)cc(C)c1)S(=O)(=O)c1nnc(NC(=O)C2CCCCC2)s1
  1.1% | 1.7%
> Cc1ccc(-n2ncc3c(Nc4cccc(C)c4)ncnc32)cc1
  -8.5% | 4.3%
> COC(=O)c1ccc(NC(=O)CCNS(=O)(=O)c2cccc3nsnc23)cc1
  -0.6% | -0.7%
> CCOc1ccc(C2Nc3ccccc3-c3nnc(SCc4ccccc4)nc3O2)cc1OC (stereo not given)
  -3.3% | -0.4%
> CC(=O)c1cccc(NC(=O)Cn2c(-c3cncs3)nc3ccccc32)c1
  -7.8% | -1.3%
> CCCCn1c(-c2ccc(S(=O)(=O)N3CCOCC3)cc2)csc1=Nc1ccccc1
  -11.5% | 0.1%
> Cc1ccc(-c2nc(S(=O)(=O)c3ccc(C)cc3)c(SCC(=O)c3ccccc3)o2)cc1
  -2.2% | -2.1%
> Cc1cc2nc(-c3ccc(OCc4ccccc4C)cc3)cc(C(F)(F)F)n2n1
  24.8% | 2.4%
> CCOC(=O)N1CCc2c(sc3c2c(=O)n(-c2ccc(CC)cc2)c(=O)n3C)C1
  -0.6% | 1.9%
> CCCC[C@@H]1Cc2[nH][nH]c(=O)c2[C@H](c2ccc3ccccc3c2)O1
  1.3% | 2.2%
> Cc1cc(C)cc(OCC(=O)N2CCC(c3nc4ccccc4s3)CC2)c1
  -1.7% | 0.5%
> COc1ccc(-c2nc(SCC(=O)Nc3ccc4c(c3)OCCO4)c(-c3ccccc3)[nH]2)cc1
  -5.1% | -0.2%
> COc1ccccc1CNC(=O)C(C)n1c(=O)cc(C(F)(F)F)c2c(C)nn(C)c21 (stereo not given)
  -3.7% | 3.5%
> CCOCCCNC(=O)C1CCN(c2nn3cc(-c4ccc(F)cc4)nc3s2)CC1
  1.0% | 0.2%
> O=C(Nc1nnc(S(=O)(=O)N2CCCc3ccccc32)s1)c1cccc(F)c1
  -3.2% | 2.5%
> COc1cc(NC(=O)NC(C)c2c(-n3cccc3)sc3c2CCCC3)cc(OC)c1OC (stereo not given)
  -1.1% | 1.5%
> CCOC(=O)C1CCCN(C(=O)Cn2c(=O)cc(C)c3c(C)nn(C)c32)C1 (stereo not given)
  3.9% | -0.8%
> CCOC(=O)c1c(C)[nH]c(C)c1S(=O)(=O)N1CCC(C(=O)Nc2ccccn2)CC1
  1.3% | 0.0%
> CCc1c(C)sc2c1CCN(C(=O)Nc1cc(Cl)c(OC)cc1OC)C2c1ccccc1 (stereo not given)
  -1.8% | 0.2%
> COc1cccc(C2C=C(c3ccc(C)c(C)c3)Nc3nnnn32)c1OC (stereo not given)
  -5.8% | 11.8%
> Cc1cc(C)c(NC(=O)CSc2ncc3c(n2)-c2cc(Cl)ccc2N(C)S3(=O)=O)c(C)c1
  -21.9% | 5.7%
> Cc1nn(C(C)C(=O)NC2CCCCC2)c(=O)c2c1sc1ccccc12 (stereo not given)
  -22.5% | 0.0%
> CCOC(=O)[C@]12CCC=C1N(Cc1ccco1)C(=O)[C@H](CC(=O)NCc1ccc(C)o1)C2
  -1.9% | 2.0%
> CCc1cccc(C)c1NC(=O)Cn1ccn(Cc2ccc(Cl)cc2)c(=O)c1=O
  -11.5% | 3.7%
> Cc1cc(C)n2nc(CNS(=O)(=O)c3ccc(Cl)cc3)nc2n1
  1.4% | -0.1%
> COc1ccc(CNC(=O)C2CCN(C(=O)N3CCOc4ccc(Cl)cc43)CC2)cc1
  -2.1% | -1.3%
> Cc1c(C(=O)NCc2cccc(F)c2)oc2c1-c1[nH]ncc1CC2
  28.2µM* | -0.4%
> O=C(NCc1cccc(F)c1)C1CCN(c2nc3ccccc3nc2C(F)(F)F)CC1
  2.0% | 1.9%
> COc1ccc(OC)c(CN2C(=O)CCC2(C)c2nnnn2Cc2ccccc2)c1 (stereo not given)
  0.8% | 0.6%
> COc1cccc(NC(=O)c2oc3ccccc3c2NC(=O)c2cc3ccccc3o2)c1
  57.1% | -0.5%
> CCOC(=O)[C@]12CCCC=C1N(Cc1cccc3ccccc13)C(=O)[C@H](CC(=O)N1CCSCC1)C2
  -0.9% | 0.7%
> Cc1ccc(-n2ncc(C(=O)Nc3ccc4c(c3)OCO4)c2C2CCN(C(=O)OC(C)(C)C)CC2)cc1
  -1.3% | 0.4%
> Cc1ccc2nc(-c3ccc(F)cc3)c(NC(C)(C)CC(C)(C)C)n2c1
  ? | -4.4%
> Cc1ccc2nc(-c3c[nH]c4ccccc34)c(Nc3ccccc3C)n2c1
  ? | 5.3%
> COc1cc(Nc2ncnc3onc(-c4ccc(Cl)cc4)c23)cc(OC)c1
  -25.4% | -2.0%
> CCn1cc(C(=O)NCc2ccccc2Cl)c(=O)c2cc(S(=O)(=O)N3CCCCCC3)ccc21
  -1.2% | -0.4%
> O=C1c2ccccc2C(=O)C1(c1ccccc1)N1CCN(c2cccc(C(F)(F)F)c2)CC1
  -1.3% | 4.3%
> O=c1[nH]c2c(-c3nc(-c4ccc(Cl)cc4)cs3)c(O)cn2c2ccccc12
  -4.3% | 3.1%
> CCCCN(C)S(=O)(=O)c1ccc(C(=O)Nc2sc3c(c2C(N)=O)CC(C)(C)NC3(C)C)cc1
  -4.9% | -2.4%
> CCc1ccc(CNC(=O)C2CCCN(c3nnc(C)c4c(C)n(-c5ccc(OC)cc5)nc34)C2)cc1 (stereo not given)
  -27.8% | 2.0%
> CS(=O)(=O)c1ccc(-c2nnc(NC(=O)c3ccc4c(c3)OCCO4)o2)cc1
  -16.1% | 0.4%
> CCOc1ccc(N(CC(=O)Nc2ccc3c(c2)OCO3)S(=O)(=O)c2ccccc2)cc1
  -1.7% | 5.1%
> Fc1ccc(CSc2nncn3c2cc2occc23)c(Cl)c1
  -5.8% | 1.2%
> Cc1cccc(N2CCN(CCCNC(=O)Cn3ncc4c([nH]c5ccccc54)c3=O)CC2C)c1 (stereo not given)
  -3.0% | -1.4%
> O=C(COCc1cc(-c2ccc(F)cc2)on1)Nc1cc(F)ccc1F
  4.9% | 1.0%
> Cc1cccc(C(=O)N2CCC[C@H]2C(=O)N2CCC[C@H]2C(=O)NCc2ccncc2)c1
  0.0% | 1.0%
> Cc1ccc(-n2nc(C)c3c(C)c(CCC(=O)NCc4ccccc4Cl)c(C)nc32)cc1
  4.2% | 0.9%
> COc1ccc(Cn2c(C(=O)O)c(CNCc3cccc(OC)c3)c3ccc(C)cc32)cc1
  -15.0% | 8.1%
> CCOc1ccc(-c2ncnn2-c2sc3c(c2C#N)CCCCC3)cc1
  -0.4% | 2.4%
> Clc1ccc(CCNC(c2nnc(-c3ccccc3)o2)c2ccccc2Cl)cc1 (stereo not given)
  -2.4% | 6.3%
> Fc1ccc(-n2ncc3c(Nc4cccc(Cl)c4)ncnc32)cc1
  -1.3% | ?
> Cc1ccc(-n2nc(CO)c(C(=O)NCc3cccnc3)n2)cc1C
  15.8µM* | 4.2%
> O=C(Cn1ncc2ccsc2c1=O)N1CCN(c2ccccc2)CC1
  0.3% | -0.9%
> CCOc1cc(CNC(=O)Cn2c(-c3cccs3)cc3cc(F)ccc32)ccc1OC
  25.1µM* | 11.2%
> COc1ccccc1CNC(=O)C(CC(C)C)N1Cc2ccccc2C1=O (stereo not given)
  -2.5% | 1.0%

Following part
Order of results: ClpP mod | PINK1 expr mod
> O=C(CSc1ccccc1)N1CCc2c([nH]c3ccccc23)C1c1ccc(F)cc1 (stereo not given)
  -2.4% | 0.5%
> CCOc1ccc(N(CC(=O)Nc2ccccc2CC)S(=O)(=O)c2c(C)noc2C)cc1
  -0.8% | 4.3%
> Cc1ccc(S(=O)(=O)Cc2ccc(C(=O)N3CCN(c4cccc(Cl)c4)CC3)o2)cc1
  -0.2% | 1.7%
> Cc1ccc(-n2c(=O)c3oc4ccccc4c3n(Cc3ccccc3F)c2=O)cc1C
  ? | -0.5%
> COc1ccc(-c2c(C)nn3c(C(F)(F)F)cc(-c4ccc(C)cc4)nc23)cc1
  -0.9% | 2.2%
> Cc1nc2c(c(C)nn2-c2ccccc2)c(C)c1CCC(=O)NCCc1ccc(Cl)cc1
  ? | 0.9%
> O=C(Cn1c(=O)n(Cc2ccco2)c(=O)c2ccc(C(=O)NC3CCCC3)cc21)Nc1ccc(F)cc1
  3.5% | 8.2%
> O=C(CSc1nc2ccccc2c2nc(-c3ccccc3)nn12)Nc1ccc(Br)cc1
  0.0% | 0.6%
> Cc1ccc(S(=O)(=O)Cc2ccc(C(=O)NCCc3ccc(Cl)cc3)o2)cc1
  0.9% | 1.2%
> CCc1cccc(NC(=O)Cn2c(=O)n(CC3CCC(C(=O)NC)CC3)c(=O)c3sccc32)c1 (stereo not given)
  -1.2% | -1.3%
> CCOc1ccc(CC(=O)N2CCc3cc(OC)c(OC)cc3C2COc2ccc3c(C)cc(=O)oc3c2)cc1 (stereo not given)
  12.1% | 0.0%
> COc1cccc(/C=C/c2ccnc3ccccc23)c1OC
  ? | 0.7%
> Cc1ccc(-n2nc(C)c3nc(CCC(=O)Nc4ccc(F)cc4)c(=O)n(C)c32)cc1
  2.4% | -0.4%
> COc1ccc(NC(=O)N2CCC(n3c(C)nc4cccnc43)CC2)cc1OC
  0.9% | -0.1%
> C=CCc1cccc2cc(-c3nc4ccc(C)cc4[nH]3)c(=O)oc12
  -7.8% | -1.2%
> COc1cccc(NC(=O)C(Cc2ccccc2)NS(=O)(=O)c2ccc3c(c2)c(=O)n(C)c(=O)n3C)c1 (stereo not given)
  -2.3% | 0.5%
> CCc1ccc(CNC(=O)c2cc3c(=O)oc4ccc(C)cc4c3s2)cc1
  -3.1% | 0.1%
> Cc1cccc(C)c1NC(=O)CSc1nc(-c2ccccc2)nc2c1Cc1c(CO)cnc(C)c1O2
  -6.4% | 0.0%
> CCOC(=O)c1cccc(NC(=O)CCn2c(-c3ccc(F)cc3)cc(C(=O)OCC)c2C)c1
  -19.3% | -0.9%
> Cc1cccc(NC(=O)c2cc3c(=O)n(Cc4ccco4)ccc3nc2C)c1
  -8.8% | -0.6%

The last 4 entries of the part before open the next one:
Order of results: ClpP mod | PINK1 expr mod
> CCc1ccc(CNC(=O)c2cc3c(=O)oc4ccc(C)cc4c3s2)cc1
  -3.1% | 0.1%
> Cc1cccc(C)c1NC(=O)CSc1nc(-c2ccccc2)nc2c1Cc1c(CO)cnc(C)c1O2
  -6.4% | 0.0%
> CCOC(=O)c1cccc(NC(=O)CCn2c(-c3ccc(F)cc3)cc(C(=O)OCC)c2C)c1
  -19.3% | -0.9%
> Cc1cccc(NC(=O)c2cc3c(=O)n(Cc4ccco4)ccc3nc2C)c1
  -8.8% | -0.6%
> COc1ccc(CNC(=O)CCCN2C(=O)CSc3c2c(C)nn3-c2ccccc2)c(OC)c1
  -1.0% | 1.4%
> COc1ccc(-c2nc3cc(NC(=O)c4ccc(C)cc4)ccc3o2)cc1Cl
  -2.0% | 3.1%
> COc1cccc2c1Oc1ncccc1N(c1ccc(C(=O)NCc3ccccc3C)s1)C2
  31.6µM* | -1.1%
> CCCn1c(=O)c2sccc2n2c(CCCC(=O)NCCOC)nnc12
  ? | 0.5%
> COc1ccc2[nH]cc(CCN=C(NC(=O)c3ccccc3OC)Nc3nc(C)cc(C)n3)c2c1
  -7.9% | 0.7%
> COc1ccc(NC(=O)c2ncoc2-c2ccco2)cc1Cl
  -4.3% | 2.7%
> CCOc1ccc(CN(CCc2ccc3c(c2)OCO3)Cc2cc(OC)cc(OC)c2)cc1
  -1.2% | 1.6%
> CC1CCN(Cc2c(O)ccc3c(=O)c(-c4ccc(Cl)cc4)c(C(F)(F)F)oc23)CC1
  3.1% | 1.7%
> CN(C)CCN1CCN(C2CN(Cc3cn(Cc4ccc(C(F)(F)F)cc4)nn3)S(=O)(=O)C2)CC1 (stereo not given)
  0.4% | -0.6%
> CCCSCCCNC(=O)c1sc2nc(C)cc(C)c2c1-n1cccc1
  0.1% | 2.8%
> CCc1ccc(Cn2nnc3c(=O)[nH]c(C4CCCN(C(=O)c5cccc(Cl)c5)C4)nc32)cc1 (stereo not given)
  -2.1% | 0.1%

Rewritten field by field: part of the list above
Compound: COc1ccc(CNC(=O)CCCN2C(=O)CSc3c2c(C)nn3-c2ccccc2)c(OC)c1
- ClpP mod: -1.0%
- PINK1 expr mod: 1.4%
Compound: COc1ccc(-c2nc3cc(NC(=O)c4ccc(C)cc4)ccc3o2)cc1Cl
- ClpP mod: -2.0%
- PINK1 expr mod: 3.1%
Compound: COc1cccc2c1Oc1ncccc1N(c1ccc(C(=O)NCc3ccccc3C)s1)C2
- ClpP mod: 31.6µM*
- PINK1 expr mod: -1.1%
Compound: CCCn1c(=O)c2sccc2n2c(CCCC(=O)NCCOC)nnc12
- ClpP mod: ?
- PINK1 expr mod: 0.5%
